Source: PubChem (several laboratories)
Ecoli growth = inhibitors of Escherichia coli growth; OD600, 23 h; hits give low values; OD600 absorbance (test concentration not listed); 0.21% of 330,000 active; AID 1053175;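 active means OD600 absorbance below the run mean of sample wells minus 3.6 SD, in any replicate, cut at about 0.56 in these data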;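 further: stock transfer was 300 nL into about 60 µL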
FGF22 binding = shifts melting point of recombinant human FGF22; Q9HCT0; recombinant FGF22 thermal shift, SYPRO orange fluorescence; percent of sucrose octasulfate shift, DMSO zero; calls only at 9.99 µM; 1.5% of 340,000 active;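 active means melting point raised past a set limit in the mean and every replicate; three in four hits are not shown here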
Target sequence (Q9HCT0 whole entry, looked up): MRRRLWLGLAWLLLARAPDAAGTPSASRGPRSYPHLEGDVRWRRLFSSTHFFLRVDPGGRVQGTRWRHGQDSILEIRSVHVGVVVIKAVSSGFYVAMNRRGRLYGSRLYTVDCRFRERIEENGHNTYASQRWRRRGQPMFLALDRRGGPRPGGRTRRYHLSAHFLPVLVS
HNF4A DNA FP = change in binding of human HNF4 alpha to DNA; HNF4a-FITC DNA binding, fluorescence polarization, 1 h; activity change, % at 10 µM; AID 1224865; 0.3% of 360,000 active; P41235; in the data active means activity change above about 30%, passing the limit was not always enough;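 further: controls were the assay level and a saturating level of protein; the project sought stronger binding though the title names inhibitors; some compounds called inactive have numbers as strong as hits; positive values seem to mean higher polarization but the record does not say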
Target sequence (P41235 whole entry, looked up): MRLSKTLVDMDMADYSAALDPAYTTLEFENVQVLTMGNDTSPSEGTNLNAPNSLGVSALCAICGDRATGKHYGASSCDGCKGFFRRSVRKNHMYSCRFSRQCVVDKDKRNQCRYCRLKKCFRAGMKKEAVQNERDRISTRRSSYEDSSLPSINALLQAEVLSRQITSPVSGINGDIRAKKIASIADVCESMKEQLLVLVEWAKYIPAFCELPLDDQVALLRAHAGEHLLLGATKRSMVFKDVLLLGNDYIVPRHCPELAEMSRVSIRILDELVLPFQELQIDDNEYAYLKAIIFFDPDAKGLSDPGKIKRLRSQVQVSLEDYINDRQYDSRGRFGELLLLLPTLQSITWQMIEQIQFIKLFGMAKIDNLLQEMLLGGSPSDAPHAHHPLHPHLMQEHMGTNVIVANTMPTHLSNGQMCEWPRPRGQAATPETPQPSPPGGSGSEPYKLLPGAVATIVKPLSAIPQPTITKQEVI
Ecoli rRNA inh = inhibits bacterial ribosomal RNA function over humanized ribosomes; AID 720706; E. coli WT GFP vs humanized-ribosome RFP mutants, fluorescence, 24 h; hits give low values; DMSO median 0, no signal -100; 1.6% of 350,000 active; GFP signal change (wild-type ribosome), % (concentration not given with the values);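 active means significant combined selectivity score with lowered wild-type GFP, culture density cut under 30%, mutant RFP and density less affected; inactive means any of these conditions unmet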; further: one replicate is shown; some compounds called inactive have numbers as strong as hits
Beta2AR agonist = agonists of human beta-2 adrenergic receptor inducing internalization. P07550. Am2.2-beta2AR cells, FAP receptor internalization, flow cytometry; reference of the scale not given here. response, % (concentration not given with the values). 0.43% of 340,000 active. AID 504454;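 active means response above a set limit, near 3 SD of response in nonfluorescent compounds, cut at about 42% in these data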;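 further: stock transfer was 100 nL into about 11 µL; a reference agonist was the positive control; negative values mostly stem from fluorescent compounds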
UCH37 inh = inhibitors of human deubiquitinating enzyme UCH37 | 0.33% of 330,000 active | Q9Y5K5 | purified proteasome/UCH37, Ub-AMC cleavage fluorescence | inhibition, % (concentration not given with the values);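 active means mean of two replicates above 20%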;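 further: 0% = compound-free wells with enzyme and 100% = wells lacking proteasome; stock transfer was 100 nL into about 20 µL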
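System: Proteasome-associated human UCH37 deubiquitinase; Input: 0.15 nM proteasome in added enzyme buffer; Also added: Ub-AMC substrate from 1 µM stock; Incubation: 30 min compound-proteasome preincubation then 25 min substrate reaction, room temperature; Detection: fluorescence, ex 355 nm, em 460 nm; Read-out: % inhibition of Ub-AMC cleavage fluorescence; Benchmarks: no-proteasome and no-compound wells.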
ALR inh = inhibitors of human sulfhydryl oxidase ALR | purified ALR, DTT oxidation, H2O2 HRP-luminol luminescence | P55789 | inhibition, % (no concentration beside the values) | 3.8% of 290,000 active;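 active means mean and each replicate at 75% or more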;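 further: stock transfer was 7.5 nL into about 7.5 µL; 0% = neutral wells and 100% = wells with inactivated enzyme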
Target sequence (P55789 whole entry, looked up): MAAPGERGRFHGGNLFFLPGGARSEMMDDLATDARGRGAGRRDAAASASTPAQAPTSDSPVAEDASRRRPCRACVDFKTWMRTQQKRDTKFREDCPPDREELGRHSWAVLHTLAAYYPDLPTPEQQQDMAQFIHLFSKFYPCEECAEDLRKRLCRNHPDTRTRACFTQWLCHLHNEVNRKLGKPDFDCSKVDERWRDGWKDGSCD
Ecoli rRNA inh OD600 = further read-out of Ecoli rRNA inh, marked with its call; OD600 change, %; measured here: OD600 growth;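 optical density of the mix in the first replicate; 0 = DMSO median and -100 = no signal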
Ecoli rRNA inh RFP = further read-out of Ecoli rRNA inh, marked with its call; RFP signal change, %; measured here: RFP humanized mutant strains;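 first replicate; 0 = DMSO median and -100 = no signal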
* = called active by the depositor; i = inactive; . = no result given. The list is partial; the hit share may differ from the screen's.

cpd	SMILES	Beta2AR agonist	ALR inh	FGF22 binding	Ecoli rRNA inh	Ecoli rRNA inh OD600	Ecoli rRNA inh RFP	HNF4A DNA FP	UCH37 inh	Ecoli growth
1	CC1(C)C([N+](=O)[O-])C(c2ccc(F)cc2)NC(c2ccc(F)cc2)C1[N+](=O)[O-] (stereo unspecified)	4	0	i	-1	-9	-4.7	0.4	6.4	0.73
2	FC(F)(F)c1cccc(Cc2noc(CN3CCCC(OCc4ccccn4)C3)n2)c1 (stereo unspecified)	-24	.	i	-15	-5	5.9	6.7	-0.6	0.7
3	CC(C)(C)n1ncc2c(=O)n(CC(=O)Nc3ccc4c(c3)OCO4)cnc21	-7	-3	.	4	3	-3.4	2.5	0.0	0.69
4	Cc1nc2ccccn2c1/C(O)=C1\C(=O)C(=O)N(CCCn2ccnc2)C1c1ccncc1 (stereo unspecified)	2	1	.	.	.	.	-0.8	5.8	.
5	Cc1cc(=O)oc2cc(OCC(=O)Nc3ccc(F)cc3F)ccc12	-4	.	i	0	1	0.7	-2.7	-92	0.67
6	CC(C)NC(=O)CSc1nnc(-c2ccc3ncccc3c2)n1C	5	-19	i	5	-2	-1.6	-4.3	2.8	0.68
7	CC(=O)c1cccc2c(O)c(C3=Nc4ccccc4C3=O)[nH]c12	0	71	.	.	.	.	0.8	28*	0.71
8	COC(=O)[C@]12C(=O)NC[C@H](CN1c1ccc(Cl)c(C)c1)N2C	3	7	i	1	1	-6.2	3.5	1.0	.
9	O=C(CCN1C(=O)S/C(=C\c2ccc(F)cc2)C1=O)Nc1ccc(O)cc1C(=O)O	-5	27	i	0	2	-0.4	-1.1	1.9	0.68
10	COc1ccc(C)cc1N(CC(=O)NC(C)c1ccccc1)S(C)(=O)=O (stereo unspecified)	2	-17	i	8	7	4.3	0.6	2.8	0.68
11	COC(=O)c1cc(-c2cccs2)[nH]n1	8	-18	i	0	-1	-0.8	2.7	-0.8	0.59
12	C=CC[C@H](CC(=O)N(CCO)Cc1ccccc1)C(=O)N[C@H](COC(=O)[C@@H](CC=C)Cc1ccc(F)cc1)Cc1c[nH]c2ccccc12	9	0	i	13	8	2.9	3.5	4.6	.

Only Beta2AR agonist, Ecoli growth and UCH37 inh, for 2 of the compounds above:
| no. | Structure | Beta2AR agonist | Ecoli growth | UCH37 inh |
| --- | --- | --- | --- | --- |
| 5 | Cc1cc(=O)oc2cc(OCC(=O)Nc3ccc(F)cc3F)ccc12 | -4 | 0.67 | -92 |
| 6 | CC(C)NC(=O)CSc1nnc(-c2ccc3ncccc3c2)n1C | 5 | 0.68 | 2.8 |

Additional results:
cpd	SMILES	Beta2AR agonist	ALR inh	FGF22 binding	Ecoli rRNA inh	Ecoli rRNA inh OD600	Ecoli rRNA inh RFP	HNF4A DNA FP	UCH37 inh	Ecoli growth
13	O=C(CSc1nnc(CNC(=O)c2ccco2)o1)Nc1ccc(Br)cc1	-3	99*	i	-1	1	0.6	-1.2	4.7	0.7
14	Cc1ccc(-c2nn(-c3ccccc3)cc2C(=O)NC2CCC(O)CC2)cc1 (stereo unspecified)	-5	.	i	5	9	0.3	-0.9	0.9	0.66
15	O=C(N/N=C/c1ccc([N+](=O)[O-])cc1)c1cc(-c2ccc3c(c2)OCO3)n[nH]1	10	0	i	-2	8	2.9	5.3	.	.
16	O=C(c1cc2ccccc2o1)N(C1CC1)C1(C(=O)Nc2ccccc2)CCCC1	8	-3	i	-22	-18	-5.0	1.7	0.8	0.65
17	O=C(CN1C(=O)C2CC=CCC2C1=O)Nc1nc2ccccc2s1 (stereo unspecified)	-4	0	i	-8	-10	-1.3	-2.5	0.5	0.66
18	CCOc1ccccc1C=NNC(=O)C1CC1	-14	.	i	-5	5	-6.9	-0.6	2.1	0.67
19	CC(=O)c1ccc(OCC(O)CN2CCN(S(=O)(=O)c3c(C)c(C)cc(C)c3C)CC2)cc1 (stereo unspecified)	0	-18	i	-1	7	-0.5	2.3	.	.
20	CC(=O)Nc1ccc(S(=O)(=O)N(C)CCOCc2ccccc2)cc1	1	-4	.	.	.	.	-0.6	3.0	0.75
21	COc1cc(CC(=O)O)ccc1OCc1ccccc1	10	-21	i	11	1	1.0	-2.5	2.7	0.64
22	O=C(NCCC1CCCCN1S(=O)(=O)c1ccc(F)cc1)C(=O)Nc1ccccc1F (stereo unspecified)	0	0	i	9	3	-0.9	2.3	-0.6	0.62
23	CCN(C(=O)COC(=O)c1nn(-c2ccccc2)c(=O)c2ccccc12)C1CCS(=O)(=O)C1 (stereo unspecified)	0	-5	i	-2	4	1.4	-4.0	2.3	0.67
24	O=C(OC1CCN(c2ncc(C(F)(F)F)cc2Cl)CC1)c1ccc(Cl)cc1	2	.	.	.	.	.	7.0	2.7	0.67
25	Cn1c(C2CC(=O)N(Cc3ccccc3)C2)nc2ccccc21 (stereo unspecified)	-9	-6	i	16	6	-2.2	-0.1	2.7	0.7
26	O=c1c2[nH]c3ccccc3c2ncn1C1CCCCC1	-1	-1	.	.	.	.	-0.5	-23	0.71
27	CCOC(=O)c1sc(NNC(=O)c2ccc(F)cc2)nc1C	7	10	i	.	.	.	3.2	0.8	0.64
28	CCOC(=O)c1ccc(NC(=O)c2ccccc2)cc1	-4	-2	i	24	12	4.2	3.0	0.1	0.66
29	Nc1ncnc2nc(N3CCN(C(=O)c4ccccc4)CC3)[nH]c12	5	20	.	.	.	.	-1.7	0.3	0.75
30	Brc1ccccc1OCCCOc1cccc2cccnc12	-2	-3	i	-46	-72	-13	2.1	-2.2	0.6
31	Cc1nn(Cc2c(F)cccc2Cl)c(C)c1[N+](=O)[O-]	10	-9	i	-6	-3	-2.7	4.3	2.7	0.66
32	N#C/C(=C\c1cc([N+](=O)[O-])ccc1Cl)C(N)=O	-1	.	i	6	12	-1.8	2.6	0.5	0.65
33	CC1(C)Cc2c(cnn2-c2ccccc2)C(NC(=O)CCc2ccc(=O)[nH]n2)C1 (stereo unspecified)	0	3	i	2	2	1.0	4.0	1.6	0.67
34	CCN(CC)S(=O)(=O)c1ccc2oc(SCc3ccc(F)cc3)nc2c1	0	-18	.	.	.	.	3.3	4.1	0.72
35	COc1cccc(C(=O)OC(C)C(=O)NCC2CCCCC2)c1 (stereo unspecified)	-9	1	i	0	-7	-0.9	-4.2	0.6	0.66
36	O=[N+]([O-])c1ccc(C(=S)N2CCN(Cc3ccccc3)CC2)cc1	-2	-6	.	.	.	.	-2.4	-2.7	0.72
37	CC(=O)Nc1cccc(-c2ccnc3c2CC(C(=O)Nc2cccc(Oc4ccccc4)c2)O3)c1 (stereo unspecified)	.	.	i	-1	11	14	3.5	.	.
38	CCOc1ccc2oc(=O)cc(CN3CCN(Cc4ccccc4)CC3)c2c1	2	-37	i	10	14	0.9	1.4	-16	0.68
39	COc1ccc2sc(-c3ccc(N(C)C)cc3)c(-c3cnc(OC)nc3)c2c1	2	-12	i	-14	2	15	1.5	-40	0.73
40	CCN1CCN(S(=O)(=O)c2ccc3[nH]c(=O)oc3c2)CC1	-2	-1	i	11	14	1.2	-1.8	3.9	0.66
41	Cc1nn2c(N)c(-c3ccccc3)cnc2c1-c1ccc(Cl)cc1	19	.	i	4	10	-0.6	-1.2	-152	0.67
42	COc1cc(F)ccc1-c1cc(C(=O)NCc2ccc(F)cc2)[nH]n1	.	.	i	-3	-19	-1.0	4.0	.	.
43	CCCN(CC1CC1)C(=O)COC(=O)c1ccc(CNS(=O)(=O)c2ccc(F)c(Cl)c2)cc1	2	-8	i	2	-18	-7.8	-1.8	1.0	0.72
44	O=C1CC[C@@H]2CC3(C[C@@H]4CCN1[C@H]24)Nc1ccccc1NC3=NC1CCCCC1 (stereo partly specified)	-26	.	i	7	9	7.0	-0.2	.	.
45	Cc1nnc(SCC(=O)Nc2nc3ccccc3s2)n(N)c1=O	3	45	i	8	2	-1.8	2.5	1.0	0.65
46	CN(C(=O)COC(=O)c1n[nH]c2ccccc12)C1CCS(=O)(=O)C1 (stereo unspecified)	7	-11	.	.	.	.	-1.4	3.2	0.68
47	Cc1cnccc1NC(=O)c1cccs1	3	.	i	8	5	1.5	0.9	1.6	0.72
48	CC1(C)Cc2[nH]c(=O)c(C#N)cc2CS1	-4	-13	.	.	.	.	-3.2	-7.2	0.73

Reprinted: entries 39–40
cpd	SMILES	Beta2AR agonist	ALR inh	FGF22 binding	Ecoli rRNA inh	Ecoli rRNA inh OD600	Ecoli rRNA inh RFP	HNF4A DNA FP	UCH37 inh	Ecoli growth
39	COc1ccc2sc(-c3ccc(N(C)C)cc3)c(-c3cnc(OC)nc3)c2c1	2	-12	i	-14	2	15	1.5	-40	0.73
40	CCN1CCN(S(=O)(=O)c2ccc3[nH]c(=O)oc3c2)CC1	-2	-1	i	11	14	1.2	-1.8	3.9	0.66

(list continues)
cpd	SMILES	Beta2AR agonist	ALR inh	FGF22 binding	Ecoli rRNA inh	Ecoli rRNA inh OD600	Ecoli rRNA inh RFP	HNF4A DNA FP	UCH37 inh	Ecoli growth
49	O=C(CN1CCCC1)Nc1cc(F)ccc1F	-6	-4	i	2	0	3.7	4.8	0.5	0.68
50	O=C(O)C1CC=CCC1C(=O)Nc1ccc(Oc2ccc(Cl)cc2)cc1 (stereo unspecified)	1	15	i	-8	4	-6.7	-1.1	6.4	0.71
51	CCCc1cc(=O)oc2cc(OC(C)C(=O)NC3CC(C)(C)NC(C)(C)C3)ccc12 (stereo unspecified)	-15	-21	i	6	4	3.7	-1.8	-20	0.7
52	CCOc1ccc(C(=O)NC(=S)Nc2cc(C)ccn2)cc1[N+](=O)[O-]	-11	-4	i	17	10	0.5	0.1	3.7	0.7
53	Cc1ccc(C)c(N(CC(=O)Nc2ccc(-c3nc4ccc(C)cc4s3)cc2)S(C)(=O)=O)c1	10	.	i	.	.	.	5.1	-237	0.76
54	O=C(NCc1ccco1)c1cccc(C(F)(F)F)c1	3	8	.	3	6	1.4	2.4	1.3	0.72
55	CC(OC(=O)Cc1ccc(Br)cc1)C(=O)NC1CCCCC1C (stereo unspecified)	-4	3	i	-2	-4	1.0	5.6	-0.3	0.73
56	O=c1c2ccccc2nc(-c2ccc(Cl)cc2)n1C1CCS(=O)(=O)C1 (stereo unspecified)	-13	0	.	.	.	.	1.2	0.8	0.72
57	Cc1nc2ccc(NC(=O)COc3ccccc3[N+](=O)[O-])cc2s1	-6	-6	i	8	6	0.6	0.8	2.1	0.69
58	COc1cccc(CNC(=O)CCN2C(=O)[C@@H]3Cc4ccccc4CN3C2=O)c1	0	-4	i	5	8	-0.1	2.2	2.9	0.69
59	COC(=O)[C@H](CC(C)C)NC(=O)NCCC1=CCCCC1	3	-3	i	-4	2	-0.7	0.5	10.0	0.65
60	O=C(c1ccc2snnc2c1)N1CCOCC1	-6	-1	.	.	.	.	-0.3	3.4	0.71
61	Cc1onc(-c2ccccc2Cl)c1C(=O)NC(=S)NCC(=O)c1ccccc1	11	-9	.	.	.	.	2.8	3.0	0.7
62	COCCN1C(=O)C(O)=C(C(=O)c2ccco2)C1c1cccc(Oc2ccccc2)c1 (stereo unspecified)	6	4	.	-34	-60	0.6	-1.6	8.0	0.66
63	CC1CC(C)CN(S(=O)(=O)c2ccc(C(=O)OCC(=O)NCCN3C(=O)CSC3=O)cc2)C1 (stereo unspecified)	4	-12	i	4	4	8.1	0.5	-1.4	0.69
64	COC(=O)C(C)NC(=S)N1CCN(c2c(F)cc3c(=O)c(C(=O)O)cn(C4CC4)c3c2OC)CC1C (stereo unspecified)	10	-2	i	-57	-80	-24	-1.1	-142	0.067*
65	CCCS(=O)(=O)N1CCCC(C(=O)NCCc2ccc(Cl)cc2)C1 (stereo unspecified)	4	-3	.	.	.	.	-2.3	1.3	0.68
66	Cc1ccc(C(=O)NCCc2ccccc2)cc1	0	-3	.	.	.	.	1.4	2.3	0.7
